Bioassay records (PubChem BioAssay)
IDE cell inh = cellular human IDE inhibition. P14735. HEK cells, FAbetaB cleavage, fluorescence polarization. inhibition, % at 5.59 µM. hit rate 0.41% among 320,000;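 active means percent inhibition above the average of all tested compounds plus 3 SD, set per screening campaign, cut at about 16% in these data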;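 further: IDE supplied by intact live HEK cells; FP after avidin binding of uncleaved biotin substrate so inhibition keeps polarization high; 0% = DMSO wells and 100% = 60 µM reference IDE inhibitor Ii1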
IDE act = activators of human insulin-degrading enzyme in cells; HEK cells, FAbeta-B cleavage, fluorescence polarization; 0% vehicle, 100% cell-free pure enzyme wells; AID 493087; activation, % at 5.96 µM; hit rate 0.073% among 340,000;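 active means activation above the mean of all tested compounds plus 3 SD, set per screening campaign, cut at about 17% in these data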
SUMO HTRF inh = blocks human SUMOylation mediated by UBC9; hit rate 0.36% among 290,000; HTRF SUMOylation assay, SAE1/SAE2 + UBC9, in vitro; inhibition, % at 35 µM; P63279; in the data active means inhibition above about 50%, passing the limit was not always enough; further: strong numbers were not always called active
pCIP destab = compounds decreasing mouse p/CIP protein stability; Q05BA5; hit rate 0.01% among 290,000; decrease of EGFP signal, % at 10 µM; F442A p/CIP-EGFP cells, EGFP fluorescence, 16 h;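 active means EGFP signal decrease of at least 30% at 10 µM or well 3 SD below plate mean, unless failing retest; inactive means the rest, including hits failing retest or dose response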; further: some compounds called inactive have numbers as strong as hits; many of its hits are not listed in these tables
An asterisk follows results filed as active; · = not tested or not shown.

Each structure is followed by: SUMO HTRF inh, IDE act, pCIP destab, IDE cell inh
CCOc1ccc2nc(S(N)(=O)=O)sc2c1
    -14, 6, -4, -2
Cc1cccc(N2CCN(C(=O)c3cc4c(=O)n(C)c5ccccc5c4n3C)CC2C)c1 (stereo not given)
    7, ·, -2, 0
COc1ccc(C2CC(c3ccccc3)=NN2C(=O)CCCC(=O)O)cc1 (stereo not given)
    3, 3, -2, 6
CC(=O)Nc1cccc(-c2nnc(-c3ccc(C)cc3)o2)c1
    21, -3, -2, ·
CC(=O)c1nc2ccccc2n1S(=O)(=O)c1ccc(Cl)cc1
    11, 7, -1, -5
Cc1nc2ccc(S(=O)(=O)NCC(=O)NCCN3CCCCCC3)cc2s1
    13, 5, -16, 0
O=C(O)c1cc(NS(=O)(=O)c2cccc3ccccc23)ccc1O
    8, 4, 1, -2
O=C(O)/C=C\C(=O)O
    ·, 10, ·, -2
Cc1nc(-c2ccccc2)c(-c2ccccc2)[nH]1
    5, 2, 1, -3

Exported as labelled records: part of the list above.
O=C(O)c1cc(NS(=O)(=O)c2cccc3ccccc23)ccc1O
- SUMO HTRF inh: 8
- IDE act: 4
- pCIP destab: 1
- IDE cell inh: -2
O=C(O)/C=C\C(=O)O
- SUMO HTRF inh: ·
- IDE act: 10
- pCIP destab: ·
- IDE cell inh: -2

A portion taken from the entries so far, as a working copy:
Each structure is followed by: SUMO HTRF inh, IDE act, pCIP destab, IDE cell inh
O=C(O)c1cc(NS(=O)(=O)c2cccc3ccccc23)ccc1O
    8, 4, 1, -2
O=C(O)/C=C\C(=O)O
    ·, 10, ·, -2
Cc1nc(-c2ccccc2)c(-c2ccccc2)[nH]1
    5, 2, 1, -3

Some of the compounds tested; count on the stated rates, not on these rows.
